Screens as filed in PubChem.
PMP22 txn prim: modulators of PMP22 gene transcription in S16 Schwann cells. S16 Pmp22-F2sN Schwann cells (luciferase reporters placed in the Pmp22 gene), FLuc/NLuc coincidence luminescence, 24 h. Potency, µM (titrated, usually from 57.5 µM), for inactives: top-dose activity change, negative = inhibition, actives largely listed as inhibitors. 43,000 tested, 2% active. AID 1508649; active = clear falling dose curves in both reporters; inconclusive = both reporters move, but less clearly or upward; inactive = either reporter flat; the % is the NLuc reporter signal; also: % is scaled to controls: 0 for no effect and ±100 for the full control effect; some results filed as inactive show a strong effect at the top dose
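Luminescent read-out of sequential FLuc and NLuc signals from a reporter embedded in the Pmp22 3' UTR of S16 Schwann cells, taken after 24 h compound exposure at 37C; compounds reducing both signals score as inhibitors of expression.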
HTT promoter inh: HTT promoter inhibition. HEK293 HTT promoter firefly luciferase reporter (activity 0% = vehicle and -100% = no light), 24 h. Potency, µM (series often up to 57.5 µM), for the others: at the highest dose activity change, negative = inhibition, usual class: inhibitors. 48,000 tested, 0.93% active; active = well fitted inhibition curve with a large enough effect; inconclusive = small, poorly fitted or top-dose-only effect; inactive = no such curve, though single readings can be large or run the other way; also: nearly all actives have a fitted effect of over 50% in size
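HEK293 luciferase promoter-reporter cells (2,500/well) plated 24 h, then compounds added at up to 57.5 uM final for 24 h at 37 °C. Firefly luminescence by Dual-Glo, normalized to vehicle (0%) and zero RLU (-100%).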
The depositor's hits bear a star; ? = inconclusive; · = not tested or not shown; [ ] = remark or other dose. Potency is read from the fitted curve at half-maximal effect.

mol,PMP22 txn prim,HTT promoter inh
Cc1nc(SCc2ccccc2Cl)c(C#N)c(C)c1C,?,4%
Cc1ccc(Cc2cn3cc(-c4ccc(F)cc4)nc3s2)cc1,-20%,18%
O=c1ccc2ccc(O)c(O)c2o1,·,?
Cc1cccn2c(=O)c(/C=C(\C#N)c3nc4ccccc4s3)c(Oc3ccc(Br)cc3)nc12,-36%,5%
Cc1cccc(C)c1NC(=O)Cn1cc(C(=O)c2ccco2)c2ccccc21,-20%,?
CN(C)S(=O)(=O)c1ccc2c(c1)N(CC(=O)NCc1cccc(Br)c1)C(=O)CS2,0%,-22%
CCOc1ccc(CNC(=O)C2CCN(c3nn4c(=O)cc(C)nc4s3)CC2)cc1,-2%,-15%
CCOC(=O)c1[nH]c2ccccc2c1NC(=O)c1ccccc1OC,?,-24%
CCc1nn(CC(=O)N2CCN(c3cc(C)ccc3C)CC2)c(=O)c2cc3occc3n12,?,-15%
COc1ccccc1NC(=O)c1sc2nc3c(cc2c1N)CCCCCC3,-26%,-24%
COc1ccc(C2=NS(=O)(=O)N(C)C(C(=O)Nc3ccc(OC(F)(F)F)cc3)=C2)cc1,-16%,?
Cc1cccc(NC(=O)C2CCCN(c3nnc(-n4c(C)ccc4C)s3)C2)c1C (stereo not drawn),16µM*,-30%
Cc1ccc2nc3c(c(Nc4ccc(C)c(C)c4)c2c1)CCC3,19µM*,?
O=C(Cn1cc(S(=O)(=O)c2ccccc2)c(=O)c2cc(Cl)ccc21)Nc1ccc2c(c1)OCO2,-15%,-16%
Cc1ccc(NC(=O)Cn2c(=O)n(Cc3nc(C)no3)c(=O)c3ccccc32)c(Cl)c1,?,1%
COc1ccc(S(=O)(=O)Nc2cccnc2Nc2ccc(O)cc2)cc1,·,?
CO/N=C(/C(=O)N[C@@H]1C(=O)N2C(C(=O)OCOC(=O)C(C)(C)C)=C(C)CS[C@H]12)c1csc(N)n1,·,1%
Cc1ccccc1NC(=O)c1cn(-c2ccccc2)nc1-c1ccccc1,?,?
CC1=C(C(=O)Nc2ccc(C)cc2C)C(C(C)C)n2nc(SCc3ccccc3Cl)nc2N1 (stereo not drawn),?,-11%
Cc1cc(F)ccc1NC(=O)c1c(C)oc2c1C1=NCCN1C=N2,5%,0%
Cc1cccc(OCC(=O)Nc2ccccc2C(=O)OCc2cc(=O)n3nc(C4CC4)sc3n2)c1,2%,-9%
CCOc1ccc(-n2c(SCC(=O)N3CCc4ccccc43)nc3c([nH]c4ccccc43)c2=O)cc1,-7%,-6%
CC1=C(C(=O)Nc2cccc(C(F)(F)F)c2)C(c2ccccc2)n2ncnc2N1 (stereo not drawn),-22%,-10%
O=c1c(N2CCN(c3ccccc3)CC2)csc2ccc(Cl)cc12,?,-7%
CCc1c(CN2CCN(c3ccccc3F)CC2)csc1C,?,-2%
COCCNC(=O)Cn1nc(N2CCN(c3ccccc3OC)CC2)ccc1=O,-47%,10%
Cc1ccc(NC(=O)Cn2nc(-c3ccccc3)nc(Cc3ccc(Cl)cc3)c2=O)cc1,11%,-15%
CCCn1c(=N)c(C(=O)NCc2cccnc2)cc2c(=O)n3cc(C)ccc3nc21,?,-2%
Cc1ccc(-n2ncc(C(=O)Nc3ccc(C)c(F)c3)c2C2CCN(C(=O)OC(C)(C)C)CC2)cc1C,-3%,-2%
N#Cc1ccccc1Cn1c(=O)n(-c2ccc(F)c(Cl)c2)c(=O)c2sccc21,?,-15%
CCCNC(=O)c1cc2nc(-c3ccc(Br)cc3)cc(C(F)(F)F)n2n1,?,-12%
O=c1c2oc3ccccc3c2n(Cc2ccccc2Cl)c(=O)n1Cc1ccco1,-4%,-9%
Cn1c(CCNC(=O)c2ccco2)nc2cc(NC(=O)COc3ccc(Cl)cc3)ccc21,-2%,-12%
Cc1ccc(CNC(=O)c2ccc(-c3nc(CS(=O)c4ccccc4)c(C)o3)cc2)cc1 (stereo not drawn),-7%,-12%
Cc1cccc(-c2nc(SCC(=O)NCc3ccco3)c3c(=O)n(C)c(=O)n(C)c3n2)c1,-8%,-1%
CCOC(=O)Cn1cc2c(c1-c1ccc(Cl)cc1)c(=O)n(C)c(=O)n2C,?,-3%
COc1ccc(CNc2ncnc3c2nnn3C)cc1,6%,-10%
COc1ccc(C(=O)Nc2cc(-c3cccc(C)c3)nn2-c2ccccc2)cc1,-60%,-29%
COc1cc2c(cc1OC)n(Cc1cccc(C(F)(F)F)c1)c(=O)n1nc(-c3ccccc3)nc21,5%,-15%
Cc1ccc(N2CC(NC(=O)c3cccs3)CC2=O)cc1C (stereo not drawn),?,-26%
COc1cccc(NC(=O)c2cnn(-c3ccccc3)c2-n2cccc2)c1,-1%,?
COC(=O)c1ccccc1NC(=O)CCCn1c(=O)c2cccn2c2cccnc21,-2%,-8%
Cc1ccc(-n2nc(CO)c(C(=O)NCCc3ccccc3)n2)cc1C,-3%,-11%
Cc1cccc(N2CCN(S(=O)(=O)c3c(C(=O)N4CCC(C)CC4)c(C)n(C)c3C)CC2)c1C,?,-38%
COC(=O)c1nnn(-c2ccc(Br)cc2)c1C(=O)OC,3%,-11%
O=C(Nc1nc2n(n1)C(c1ccccc1)C=C(c1ccccc1)N2)c1ccc(Cl)c([N+](=O)[O-])c1 (stereo not drawn),?,-14%
CN(C1CCCCC1)S(=O)(=O)c1ccc2c(c1)c(=O)c(C(=O)N1CCN(c3ccccc3F)CC1)cn2C,-10%,3%
Cc1ccc(C)c(CN2CCCN(Cc3cc(C)ccc3C)S2(=O)=O)c1,?,-13%
CN(Cc1ccccc1)Cc1c(O)ccc2c(=O)c(-c3ccccc3)c(C(F)(F)F)oc12,?,?
CCc1ccc(C2=NN(CCC(=O)NCCc3ccccc3)C(=O)CC2)cc1,8%,?

Next section:
mol,PMP22 txn prim,HTT promoter inh
CCCS(=O)(=O)N1CC(=O)N(c2ccc(C)cc2C)C(C)(C(=O)NC2CCCCCC2)C1 (stereo not drawn),?,-2%
O=C(Cn1ncc2c([nH]c3ccccc32)c1=O)Nc1cccc(C(F)(F)F)c1,20µM*,3%
COc1ccc(N2CCN(C(=O)CSc3nc4ccccc4nc3Cc3ccc(Cl)cc3)CC2)cc1,-28%,?
Cc1ccc(CSC2=Nc3ccccc3C3=NC(CCC(=O)NCCc4ccccc4)C(=O)N23)cc1 (stereo not drawn),0%,-22%
O=C(CCCn1c(=O)c2sccc2n(Cc2c(F)cccc2Cl)c1=O)NCc1ccccc1,?,-2%
Cc1cc(C)cc(N2CC(c3nc(-c4ccccc4C)no3)CC2=O)c1 (stereo not drawn),-1%,-17%
CCN1CCN(CCCNC(=O)c2ccc3nc(Cc4ccccc4)oc3c2)CC1,-13%,-11%
Cc1ccc(NC(=O)Cn2c(=O)oc3cc(S(=O)(=O)N4CCC(C)CC4)ccc32)cc1Cl,?,?
O=C(Nc1ccccc1C(=O)OCc1cc(=O)n2c3c(sc2n1)CCCC3)c1cccc(Cl)c1,52%,-9%
Cc1ccc(-c2c(C(=O)NCCc3ccc(Cl)cc3)oc(=O)c3ccccc23)cc1,?,?
O=C(NCCc1ccccc1Cl)c1ccc2c(c1)nc1n2CCOC1,-6%,23%
COc1ccc2oc(=O)cc(CN3CCN(C(=O)c4ccccc4Br)CC3)c2c1,?,-19%
CCN(C(=O)CCS(=O)(=O)c1cccc2nsnc12)c1cccc(C)c1,-3%,-10%
COc1cccc(NC(=O)C2CCCN(S(=O)(=O)c3c(C)[nH]c(=O)[nH]c3=O)C2)c1 (stereo not drawn),8%,-15%
CCC(CC)C(=O)Nc1ccccc1SCc1cc(=O)c2cccc(C)c2[nH]1,16%,0%
CCCN(C(=O)c1cc2c(s1)-c1c(C)cccc1OC2)c1ccc(OCC)cc1,-10%,-5%
Cc1nc2c(c(C)c1CCC(=O)Nc1cccc(C(F)(F)F)c1)c(=O)n(C)c(=O)n2C,?,-9%
CNC(=O)C1CCC(Cn2c(=O)c3sccc3n(CC(=O)Nc3ccc(C)c(C)c3)c2=O)CC1 (stereo not drawn),7%,?
Cc1cc(C)c(NC(=O)Cn2nnc(-c3nc(-c4ccncc4)no3)c2N)c(C)c1,8%,-1%
CCOC(=O)c1noc2nc(C)n(CC(=O)Nc3cccc(OC)c3)c(=O)c12,1%,-5%
O=C(Nc1ccc2nc(SCC(=O)N3CCOCC3)sc2c1)c1ccc(Cl)cc1,-20%,?
Cc1ccc(Sc2ccc(N3CCC(C(=O)Nc4ccc(Cl)cc4)CC3)nn2)cc1,0%,-10%
CCc1ccccc1NS(=O)(=O)c1ccc2c(c1)OCC(C(=O)N1CCCC1)O2 (stereo not drawn),9%,?
COc1ccc(-c2cc(C(C)=O)c(C)n2CCC(=O)NCc2ccc(F)cc2)cc1,11%,-16%
COc1ccccc1NC(=O)c1sc2nc(C)c(C(=O)Nc3ccc(Cl)cc3)c(-c3ccc(Br)cc3)c2c1N,?,?

A draw from above in order of molar mass, highest first.
mol,PMP22 txn prim,HTT promoter inh
CO/N=C(/C(=O)N[C@@H]1C(=O)N2C(C(=O)OCOC(=O)C(C)(C)C)=C(C)CS[C@H]12)c1csc(N)n1,·,1%
O=C(CCCn1c(=O)c2sccc2n(Cc2c(F)cccc2Cl)c1=O)NCc1ccccc1,?,-2%
CCCS(=O)(=O)N1CC(=O)N(c2ccc(C)cc2C)C(C)(C(=O)NC2CCCCCC2)C1 (stereo not drawn),?,-2%
Cc1ccc(Sc2ccc(N3CCC(C(=O)Nc4ccc(Cl)cc4)CC3)nn2)cc1,0%,-10%
Cc1nc2c(c(C)c1CCC(=O)Nc1cccc(C(F)(F)F)c1)c(=O)n(C)c(=O)n2C,?,-9%
CCCn1c(=N)c(C(=O)NCc2cccnc2)cc2c(=O)n3cc(C)ccc3nc21,?,-2%
COc1ccccc1NC(=O)c1sc2nc3c(cc2c1N)CCCCCC3,-26%,-24%
Cc1cc(C)cc(N2CC(c3nc(-c4ccccc4C)no3)CC2=O)c1 (stereo not drawn),-1%,-17%
CCOC(=O)c1[nH]c2ccccc2c1NC(=O)c1ccccc1OC,?,-24%
CCc1c(CN2CCN(c3ccccc3F)CC2)csc1C,?,-2%
COc1ccc(CNc2ncnc3c2nnn3C)cc1,6%,-10%
O=c1ccc2ccc(O)c(O)c2o1,·,?

(more compounds)
Values run as follows: PMP22 txn prim | HTT promoter inh
> Cc1cccc(N2C(=O)N(CC(=O)C(C)(C)C)c3ccccc3S2(=O)=O)c1C
→ -4% | ?
> COc1ccc(CNC(=O)C(C)n2ccc3cc(S(=O)(=O)N4CCCC4)ccc32)cc1OC (stereo not drawn)
→ -2% | -21%
> COC(=O)c1ccccc1NC(=O)c1cnc2sc(N3CCOCC3)nn2c1=O
→ -5% | 6%
> COc1ccc(/C=C/C(=O)Nc2ccc3nc(N4CCCCC4)cc(C)c3c2)cc1OC
→ ? | -27%
> CCCc1nnc(NC(=O)Cc2coc3ccc(C)cc23)s1
→ -9% | 0%
> Cc1ccc(-c2c3c(=O)n(C)c(=O)n(C)c3c3c(C(F)(F)F)nc4ccccc4n23)cc1
→ -9% | -25%
> CCOc1ccc(CNS(=O)(=O)c2ccc3[nH]c4c(c3c2)CCCC4)cc1OC
→ ? | -28%
> CCOc1ccc(NC(=O)c2cnc(Nc3ccccc3OC)c3ccccc23)cc1
→ ? | 57%[activator]
> COc1cccc(C(=O)Nc2ccc(-n3nncc3-c3ccc(Br)cc3)cc2)c1OC
→ 1% | -17%
> CC1CCN(CC(=O)N2CCCc3c2c(=O)oc2ccc(OCc4ccccc4)cc32)CC1
→ ? | -19%
> Cc1ccc(NC(=O)NC(C)c2c(-n3cccc3)sc(C)c2C)c(C)c1 (stereo not drawn)
→ -17% | ?
> CCC(=O)N1c2ccccc2CC1C(=O)NCCN1CCN(c2cccc(C(F)(F)F)c2)CC1 (stereo not drawn)
→ ? | ?
> COc1ccccc1NC(=O)c1sc2nc(C)c(C(=O)Nc3ccc(C)cc3C)c(-c3ccco3)c2c1N
→ -24% | -4%
> CC(=O)c1cccc(NC(=O)CSc2nnc3ccc(-c4ccc(Br)cc4)nn23)c1
→ 7% | 5%
> COc1ccc(-c2coc3c2c(C)cc2oc(=O)cc(C)c23)cc1
→ -4% | 3%
> Cc1ccccc1Cn1c(SCc2ccc(C(=O)NCc3cccs3)cc2)nc2ccncc21
→ 2% | -22%
> CC(C)c1ccc(NC(=O)C2CCN(S(=O)(=O)c3cccc4nonc34)CC2)cc1
→ -1% | -10%
> CCCn1c(=O)c2sccc2n2c(CCCC(=O)NCCc3ccc(Cl)cc3)nnc12
→ -23% | -8%
> Cc1ccc(Cl)cc1NS(=O)(=O)c1ccc(N2CCCCS2(=O)=O)cc1
→ ? | ?
> CCc1nn2c(=O)cc(COC(=O)c3cccc(NC(=O)CCc4ccccc4)c3)nc2s1
→ -38% | -1%
> CN1C(=O)c2ccccc2Sc2ccc(NC(=O)c3ccccc3F)cc21
→ ? | -29%
> CCOc1ccc(NC(=O)CN(Cc2ccccc2)S(=O)(=O)c2ccc3nc(C)sc3c2)cc1
→ ? | ?
